# GLA inh pH 4.5 – blocks human alpha-galactosidase A at pH 4.5. purified enzyme, 4-MU-alpha-Gal fluorescence, pH 4.5. activity change, negative = inhibition, % at 105 µM. 230,000 tested, under 10 active. P06280; inconclusive = small, poorly fitted or top-dose-only inhibition, or a rising curve; inactive = flat fitted curve, though single readings scatter; no compound was filed as active;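 also: 0% = full activity with enzyme and -100% = basal without enzyme; dose as in the result columns while the protocol names 77 µM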
# Target sequence (P06280 whole entry, looked up): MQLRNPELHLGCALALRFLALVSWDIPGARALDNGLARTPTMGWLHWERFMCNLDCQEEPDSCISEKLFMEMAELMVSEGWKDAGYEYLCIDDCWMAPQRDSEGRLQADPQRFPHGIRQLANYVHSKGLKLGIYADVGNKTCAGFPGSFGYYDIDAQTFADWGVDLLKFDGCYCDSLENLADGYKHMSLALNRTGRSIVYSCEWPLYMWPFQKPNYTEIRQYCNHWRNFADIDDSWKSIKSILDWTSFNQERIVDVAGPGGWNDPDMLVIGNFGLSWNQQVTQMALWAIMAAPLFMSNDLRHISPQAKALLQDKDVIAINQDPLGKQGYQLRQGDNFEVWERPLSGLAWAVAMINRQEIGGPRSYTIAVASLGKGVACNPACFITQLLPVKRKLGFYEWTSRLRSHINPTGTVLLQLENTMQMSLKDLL
# Rango dissoc inh – inhibition of RanGTP-driven Rango-importin beta dissociation; O95149+P62826; Biochemical FRET Rango-importin beta, RanGTP-induced dissociation; Potency, µM (highest dose often 46.1 µM), for inactives: at the top dose activity change, negative = inhibition; 340,000 compounds, 0.071% hits; AID 540253; active means falling FRET ratio curve, often poorly fitted, with flat reads before Ran was added; inconclusive means other falling curves, or compound fluorescence or quenching; inactive means flat or rising ratio curve;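 also: potency is read from the fitted curve at half-maximal effect; % of control where 0% means no effect; nearly all actives have a fitted effect of over 45% in size; -100% = wells without RanGTP and RCC1; the record marks most hits as doubtful in a second field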
#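 Compounds preincubate 5 min with complex of recombinant Rango and importin beta in PBS with 1 mM DTT. Ran (0.6 uM) loaded with 2 mM GTP plus 0.2 uM RCC1 starts dissociation; FRET is recorded 45 min later.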
# Rango complex inh – inhibitors of Rango-importin beta complex formation. Potency, µM (titrated, usually from 92.2 µM), for inactives: at the top dose inhibition of complex formation. 340,000 compounds, 0.031% hits. Q14974. Rango CFP/YFP FRET sensor + importin beta, 45 min; active = rising FRET ratio curve, often small or poorly fitted; inconclusive = mostly compound fluorescence or quenching in the first reads; inactive = flat curves in all reads;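 also: potency is read from the fitted curve at half-maximal effect; 0% = DMSO wells and 100% = buffer wells lacking importin beta; nearly all actives have a fitted effect of over 15% in size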
#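 Inhibition scored from the CFP 486 nm/YFP 530 nm FRET ratio 45 min after adding 0.125 microM importin beta to 50 nM Rango biosensor preincubated 5 min with compound (room temperature, PBS with DTT, Tween-20, BSA). No-importin wells as positive control.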
# miR-21 FLuc – miR-21 reporter, rising signal; HeLa miR-21 FLuc reporter, luciferase, 48 h; Potency, µM (titrated, usually from 38.3 µM), without a hit: at the highest dose reporter change, positive = more light; 340,000 tested, under 10 active; AID 2288; active = well fitted rising curve with a large enough effect; inconclusive = small, poorly fitted or top-dose-only effect; inactive = no such curve, though single readings can be large or run the other way;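 also: % of control where 0% means no effect; miR-21 action dims this reporter so a rising signal means less miR-21 action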
#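 HeLa cells endogenously expressing miR-21, stably carrying CMV-driven firefly luciferase with a downstream miR-21 binding site, 2000 cells/well. Titrations up to approximately 40 uM, 48 hours; luciferase luminescence read.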
# Starred values were filed as active, the others as inactive; ? = inconclusive; nt = not tested or not shown; & = joins results of further samples. An excerpt. The share of hits here may be higher or lower than overall.
# Results follow in this order: GLA inh pH 4.5	Rango dissoc inh	Rango complex inh	miR-21 FLuc
> c1ccc(-n2ncc3c(N4CCC5(CC4)OCCO5)ncnc32)cc1
 : 5	1%	-0.6%	-23%
> O=C(N=Nc1c(O)[nH]c2ccc([N+](=O)[O-])cc12)c1cc(-c2ccccc2Cl)nc2ccccc12
 : 2	2%	7.3%	-3%
> O=C(c1cnsn1)N1CCCC(Nc2ccc(F)c(F)c2)C1 (stereo not given)
 : nt	-7%	2.8%	-1%
> CC1=CC=CC2=N/C(=N\S(=O)(=O)c3ccc(F)cc3F)c3ccccc3CN12
 : -2	-11%	-2.6%	-23%
> CN(C)C(=O)Cn1c(=O)n(C)c2ccccc21
 : 3	-4%	1.1%	-8%
> CCOCCCn1c(=S)[nH]c2ncccc2c1=O
 : 5	4%	-2.0%	-4%
> O=S(=O)(c1cccc(F)c1)N1CCN(c2nc(-c3cccnc3)nc3ccccc23)CC1
 : nt	-1%	-0.7%	nt
> Cc1nn(Cc2ccccc2)c(Cl)c1/C=N/NC(=O)c1cccnc1
 : 3	26%	3.4%	0%
> Cc1onc(NC(=O)NC(=O)c2ccccc2F)c1Br
 : nt	-8%	0.0%	-42%
> Fc1cccc(CN2CCN(C(=S)NCCc3ccccc3)CC2)c1
 : -3	7%	6.2%	-21%
> O=C(COc1ccc2ccccc2c1)N1CCN(c2ccccc2O)CC1
 : 7	-4%	?	-10%
> COc1ccc(/C=C(\NC(=O)c2ccc(C)cc2)C(=O)NCCCN2CCOCC2)cc1OC
 : nt	4%	-1.0%	-1%
> CCN(CC)CCN(C(=O)C1=COCCO1)c1nc2cc(C)cc(C)c2s1
 : nt	-2%	0.1%	1%
> Cc1cc(C)c(C)c(Oc2ncnc(N)c2[N+](=O)[O-])c1
 : 0	7%	-1.1%	-6%
> COc1ccc(CN2C(=O)C(C)Oc3ccccc32)cc1 (stereo not given)
 : nt	-10%	-0.7%	-4%

# Two of these compounds, reformatted:
smiles | GLA inh pH 4.5 | Rango dissoc inh | Rango complex inh | miR-21 FLuc
O=C(COc1ccc2ccccc2c1)N1CCN(c2ccccc2O)CC1 | 7 | -4% | ? | -10%
COc1ccc(/C=C(\NC(=O)c2ccc(C)cc2)C(=O)NCCCN2CCOCC2)cc1OC | nt | 4% | -1.0% | -1%

# Further compounds follow.
# Results follow in this order: GLA inh pH 4.5	Rango dissoc inh	Rango complex inh	miR-21 FLuc
> CCN(CC)C(=O)[C@H]1CC(CC(=O)NCc2ccc(OC)c(OC)c2)C(=O)N2CCc3c([nH]c4ccc(OC)cc34)[C@]12C (stereo not given in full)
 : nt	-9%	-2.5%	nt
> O=c1c2ccccc2c(C=NCCCN2CCOCC2)c(O)n1Cc1ccc2c(c1)OCO2
 : -13	-9%	?	-9%
> COC(=O)C1=C(C(=O)OC)[C@@H]2N(Cc3ccccc3)c3ccccc3[C@@]23C[C@@H](C(=O)OC)N(C(=O)C2CCC2)C3=N1
 : -6	12%	0.9%	nt
> CC(=O)N1CCN(CC(=O)Nc2cc(S(=O)(=O)N3CCOCC3)ccc2C)CC1
 : -4	-12%	0.9%	0%
> COc1ccc(Nc2nc(-c3cccs3)nc3ccccc23)cc1
 : -9	6%	1.7%	7%
> Cc1ccc(NCC(=O)N=Nc2c(O)[nH]c3ccc([N+](=O)[O-])cc23)cc1
 : -12	-9%	-0.2%	-47%
> CCOc1ccccc1-c1nnc(SCC(=O)NC2CC2)n1CC
 : nt	-1%	-4.7%	-2%
> Cc1c(Cl)cccc1NC(=O)COC(=O)c1ccc(CN2CCCC2=O)cc1
 : nt	-4%	0.9%	nt
> Cc1ccc(C(=O)NC23CC4CC(CC(C4)C2)C3)c(Cl)c1
 : nt	9%	0.1%	-20%
> Oc1ccccc1C=NNC(=S)Nc1ccc(F)cc1
 : nt	?	?	nt
> O=C(COc1ccccc1)NCc1nnc2c3ccccc3c(-c3ccccc3)nn12
 : 0	0%	4.6%	-7%
> Cc1cc(-c2n[nH]c(=S)n2/N=C/c2ccc(C)o2)n[nH]1
 : -1	6%	0.8%	4%
> C1CCc2c(nc3nnnn3c2N2CCOCC2)C1
 : 12	-6%	-2.7%	0%
> Cc1csc(=O)n1CCC(=O)OCC(=O)c1ccc(Br)cc1
 : nt	0%	-1.7%	nt
> CCNC(=S)Nc1ccc(Cl)cc1Cl
 : -4	0%	2.9%	-10%

# Fetched by structure from the entries so far:
# Results follow in this order: GLA inh pH 4.5	Rango dissoc inh	Rango complex inh	miR-21 FLuc
> CCN(CC)C(=O)[C@H]1CC(CC(=O)NCc2ccc(OC)c(OC)c2)C(=O)N2CCc3c([nH]c4ccc(OC)cc34)[C@]12C (stereo not given in full)
 : nt	-9%	-2.5%	nt
> Cc1cc(-c2n[nH]c(=S)n2/N=C/c2ccc(C)o2)n[nH]1
 : -1	6%	0.8%	4%
> Oc1ccccc1C=NNC(=S)Nc1ccc(F)cc1
 : nt	?	?	nt
> CCOc1ccccc1-c1nnc(SCC(=O)NC2CC2)n1CC
 : nt	-1%	-4.7%	-2%

# (continued)
# Results follow in this order: GLA inh pH 4.5	Rango dissoc inh	Rango complex inh	miR-21 FLuc
> COc1ccc(S(=O)(=O)Cc2ccc(C(=O)NCCc3cc(OC)ccc3OC)o2)cc1
 : -2	25%	-2.9%	3%
> NC(=O)c1ccccc1NC(=O)c1ccc2c(c1)OCO2
 : nt	-1%	-3.4%	-28%
> CC(NC(=O)[C@H](C)NC(=O)c1ccco1)c1ccc(S(N)(=O)=O)cc1 (stereo not given in full)
 : nt	-1%	-0.9%	0%
> CSc1ccc(CN2CCCCCC2)cc1
 : nt	25%	1.4%	0%
> COC(=O)c1ccccc1-n1c(CCC(=O)O)ccc1-c1ccccc1
 : nt	7%	3.7%	-1%&-6%
> CN(C)c1nnnn1Cc1ccccc1
 : 7	3%	3.7%	-4%
> Cn1c(Cn2nnc3ccccc32)nnc1SCC(=O)c1ccccc1F
 : 2	-9%	-3.1%	-15%
> Cc1nc2sc(C(c3ccc(Cl)cc3)N3CCN(c4ccccc4F)CC3)c(O)n2n1 (stereo not given)
 : 0	1%	2.1%	-2%
> COC(=O)CCC(=O)c1oc2ccc(OC)cc2c1N
 : 1	16%	0.8%	-54%
> CCOC(=O)c1c(-c2ccc(C)cc2)csc1NC(=S)NC(=O)c1ccccc1
 : -17	-7%	1.7%	18%
> COc1ccc2oc(C(=O)OCC(=O)NCCc3ccccc3)c(C)c2c1
 : nt	4%	-0.7%	nt
> O=C(COC(=O)c1cccnc1)NC1CCCc2ccccc21 (stereo not given)
 : 1	-13%	?	1%
> CCC(CC)c1nnc(NC(=O)CCS(=O)(=O)Cc2ccccc2)s1
 : nt	-7%	0.8%	3%
> CC[n+]1ccc2cc(OC)c(OC)cc2c1Cc1ccc(OC)c(OC)c1
 : -2	-1%	-1.8%	-2%
> CCOC(=O)N1CCN(C(=O)c2ccc(OC)cc2)CC1
 : 4	-3%	2.8%	-2%
> CCOC(=O)c1sc2ccc(S(=O)(=O)N3CC(C)CC(C)C3)cc2c1N (stereo not given)
 : 6	9%	0.9%	-4%
> Cn1c(=O)cc(OCCCC(=O)NCc2ccccn2)c2ccccc21
 : 10	3%	3.6%	-10%
> CCN1CCN(C(=O)C(=O)c2cn(CC(=O)N3CCCCCC3)c3ccccc23)CC1
 : nt	-11%	-0.6%	-3%
> Cc1ccc(/C=N/NC(=O)c2ccc(Cn3cc([N+](=O)[O-])cn3)o2)cc1
 : 4	17%	0.2%	-28%
> COc1ccc(OC)c(Nc2nc(N(C)c3ccccc3)nc(N)c2[N+](=O)[O-])c1
 : nt	-3%	2.2%	-3%
> c1ccc(Nc2nc(N3CCCC3)nc(N3CCOCC3)n2)cc1
 : nt	8%	-1.7%	nt
> Cc1[nH]c2ccccc2c1/C=N/NC(=O)c1cc(C(C)C)[nH]n1
 : 1	-8%	-2.2%	-4%
> OCC[C@@H]1C[C@@H](O)[C@H](O)[C@]2(CCCO2)O1
 : nt	-10%	-1.3%	nt
> COc1ccc(C)cc1NC(=O)CN1C(=O)COc2ccc(C)cc21
 : nt	-2%	-0.4%	-6%
> C=CCC1(C)C(=O)N(c2ccccc2)c2ccccc21 (stereo not given)
 : -1	-9%	2.5%	-12%
> CCC(=O)N(Cc1ccco1)Cc1cc2cc3c(cc2[nH]c1=O)OCO3
 : 6	-20%	-3.3%	-2%
> Cc1ccc(NC(=S)c2ccncc2)cc1
 : nt	10%	1.3%	-11%
> O=C(CCn1c(=O)oc2ccccc21)NCCCN1CCCC1=O
 : 5	14%	-2.8%	-2%
> CN1CCCN(C(=O)c2cc(-c3cccc4ccccc34)nc3ccccc23)CC1
 : -6	1%	2.8%	-1%
> O=C(O)c1cc(N2C(=O)C3CCCCC3C2=O)ccc1NCc1cccnc1 (stereo not given)
 : -1	-14%	0.6%	0%
> CCOc1ccc(Cc2noc3c2C(=O)CCC3)cc1OCC
 : 4	9%	0.4%	-10%
> O=C(COC(=O)COc1ccc(Cl)cc1)NCc1ccc2c(c1)OCO2
 : nt	-1%	0.0%	nt
> Cc1nc2ccc(C(=O)OCc3nnc(-c4ccccc4)o3)cc2nc1C
 : nt	-3%	2.3%	-3%
> C=CCSc1nnc(NC(=O)CSCc2c(C)noc2C)s1
 : nt	-4%	-2.7%	nt
> CCCCn1cnc2c(SCc3ccc([N+](=O)[O-])cc3)nc(N)nc21
 : nt	-5%	-0.3%	nt
> Cc1nc(Cl)c(C(=O)NC(C)(C)C)c(C)c1Cl
 : 2	3%	-0.8%	-6%
> Nc1cc2c(cc1Br)-c1c(C(=O)O)cccc1C2O (stereo not given)
 : nt	5%	1.2%	nt
> Cn1c(N2CCOCC2)c(/C=N/OC(=O)c2cccnc2Cl)c2ccccc21
 : -1	-5%	-4.1%	6%
> CCOC(=O)N1CCN(C(=O)Nc2cccc(Cl)c2)CC1
 : 6	4%	0.0%	-5%
> CCC(NC(=O)NC1CCCCC1)c1ccccc1 (stereo not given)
 : 8	0%	1.8%	-1%
> CCOc1ccc(C2C(C#N)=C(N)Oc3nc[nH]c(=O)c32)cc1OC (stereo not given)
 : 2	-26%	?	-5%
> CCn1cc(CNC(=O)c2cccc([N+](=O)[O-])c2)cn1
 : -4	-4%	-0.1%	-7%
> Cc1ccc2nc(CSc3nnc(-c4ccncc4)n3C)cc(=O)n2c1
 : 3	-1%	?	0%
> S=c1[nH]c2cc(Br)cnc2[nH]1
 : -2	0%	2.5%	0%
> Cc1cccc(N2CCN(CC(=O)N(C)Cc3ccccc3)CC2C)c1 (stereo not given)
 : nt	1%	0.2%	4%
> CCCCNC1c2ccccc2C(=O)N1Cc1ccccc1 (stereo not given)
 : nt	10%	3.0%	-5%
> COc1cc(C(=O)c2ccccc2)c(OC)cc1C(=O)Nc1ccc(O)cc1
 : -4	-13%	-0.2%	3%
> O=C(c1cc(-c2ccc(F)cc2)no1)N1CCN(Cc2ccc3c(c2)OCO3)CC1
 : nt	-12%	?	0%
> O=C1c2ccccc2C(=O)N1CCOc1ccccc1
 : nt	-28%	2.5%	nt
> Nc1nonc1-c1noc(-c2ccccc2)n1
 : 3	-12%	-2.6%	-49%
> COc1ccc(CNC(=O)C2CC(c3cccc([N+](=O)[O-])c3)=NO2)cc1 (stereo not given)
 : -26	?	0.2%	-32%
> O=C(c1cccc(Br)c1)N1CCN(C(=O)c2cccc(Br)c2)CC1
 : -5	-1%	-0.5%	-4%
> COc1ccc(CCC(=O)OC(C)C(=O)c2ccc(C)cc2)cc1 (stereo not given)
 : -7	15%	1.2%	6%
> CC(c1ccccc1)n1cc(C(=O)NCc2ccncc2)nn1 (stereo not given)
 : 4	-2%	1.0%	-2%
> Cc1ccc(/C=N/Nc2ncnc3nc[nH]c23)cc1
 : -5	1%	1.8%	-82%
> CC(C)(C)N1CC(COc2ccccc2)OC1=O (stereo not given)
 : 0	-2%	0.0%	-32%
> CCN1CCN(C(=O)/C=C/c2ccc3c(c2)OCO3)CC1
 : 5	10%	0.8%	-4%
> Cc1ccc(C(=O)NNC(=O)CSc2nc(N)cc(N)n2)cc1
 : -23	-7%	1.4%	-10%
> CCOC(=O)C1CCN(C(=O)c2cc(S(=O)(=O)N3CCCCC3)ccc2C)CC1
 : nt	19%	-0.5%	-2%

# Screens: PubChem, National Center for Advancing Translational Sciences (NCATS)
